# Assay outcomes from PubChem BioAssay.
# HPGD block = blocks human HPGD enzyme activity. 4.3% of 150,000 active. purified HPGD, NADH fluorescence kinetic, PGE2 substrate. Potency, µM, inactives show at the top dose activity change, negative = inhibition, most hits filed as inhibitors. AID 894. P15428; active = well fitted inhibition curve with a large enough effect (not every such curve was filed as active); inconclusive = small, poorly fitted or top-dose-only effect, or another doubt; inactive = no such curve, though single readings can be large or run the other way;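 note: top concentration of the series not given in the record; plate controls included wells without enzyme; inactives centre near -10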
# Target sequence (P15428 whole entry, looked up): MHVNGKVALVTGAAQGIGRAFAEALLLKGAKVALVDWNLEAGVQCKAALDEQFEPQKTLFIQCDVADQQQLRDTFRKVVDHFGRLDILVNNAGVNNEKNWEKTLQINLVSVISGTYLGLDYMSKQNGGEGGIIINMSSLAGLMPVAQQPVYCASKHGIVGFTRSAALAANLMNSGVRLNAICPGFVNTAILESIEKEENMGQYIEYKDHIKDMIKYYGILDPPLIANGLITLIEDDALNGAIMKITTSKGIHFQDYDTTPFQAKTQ
#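 NADH formation kinetics: reaction with 30 uM PGE2 and 1 mM NAD+ (final), 20 nM enzyme, Tris-HCl pH 8 with Tween 20, after 15 min compound preincubation at room temperature. Fluorescence change, last versus first of five reads.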
# * = called active by the depositor; ? = inconclusive. % is set by controls: 0 for no effect and ±100 for the full control effect; potency is the fitted concentration of half-maximal effect. This is a subset (hit frequency here may not be typical).
molecule	HPGD block
O=C(Nc1ccccc1)N1CCn2c1nc1ccccc12	-6%
COc1ccc(C(=O)CSc2nnc(NC(=O)C3CC(=O)N(c4ccccc4)C3)s2)cc1 (configuration not stated)	-17%
COC(=O)[C@@]1(Cc2ccc(F)cc2)[C@H]2c3cc(C(=O)N4CCCC4)n(Cc4cc(C)n(C)n4)c3C[C@H]2CN1C(=O)c1ccccc1	-13%
O=C(CSc1ccc(-c2ccccc2)nn1)c1ccccc1	?
CCc1ccccc1NC(=O)c1ccoc1C	-8%
O=C(CCc1ccc(S(=O)(=O)N2CCCCC2)cc1)c1nnc(-c2ccccc2)o1	-12%
COC(=O)C(Cc1ccccc1)NC(=O)C(N)CC(=O)O (configuration not stated)	-1%
COc1ccc(CNC(NC(=O)c2ccccc2)(C(F)(F)F)C(F)(F)F)cc1	-7%
CCOc1cc(C2C3=C(CCCC3=O)NC3=C2C(=O)CCC3)cc(Cl)c1O	-14%
CC(C(=O)O)c1ccc2c(c1)[nH]c1ccc(Cl)cc12 (configuration not stated)	3%
COc1ccc(NC(=S)NC23CN4CN(CN(C4)C2)C3)cc1	-7%
Cc1ccc(C)c(N2CCN(C(=O)CCS(=O)(=O)c3cccc4nonc34)CC2)c1	-2%
COc1ccc(C2C(C(=O)NCC3CCCO3)c3cc(OC)c(OC)cc3C(=O)N2C)cc1OC (configuration not stated)	-5%
C=CCN1c2ccccc2[C@]23C[C@@H](C(=O)OC)N(S(=O)(=O)c4ccc(C(F)(F)F)cc4)C2=NC(C(=O)OC)=C(C(=O)OC)[C@H]13	-4%
Cc1cc(C(=O)NCCN2CCN(c3cccc(Cl)c3)CC2)n(-c2ccccc2)n1	-7%
COc1ccc(-c2nnc(SCc3cc(C)ccc3C)n2N)cc1	?
CC(=O)NC(=O)NC1OC(=O)C(Cl)=C1Cl (configuration not stated)	-3%
CC(=O)Oc1ccc(/C=N/NC(=O)C2CCCN2S(=O)(=O)c2ccc(Cl)cc2)cc1 (configuration not stated)	-11%
Cc1nc([N+](=O)[O-])c(N2CCN(Cc3ccccc3)CC2)n1Cc1ccccc1	-6%
C=CCNC(=S)NNC(=O)c1cccn(Cc2ccc(Cl)cc2Cl)c1=O	-7%
Cc1cccc(NC(=O)Cn2c(O)c(N=NC(=O)c3ccccc3O)c3ccccc32)c1	-7%
COc1ccc(CCNC(=O)COC(=O)c2cnc(C)cn2)cc1OC	8%
COc1ccc(C(=O)N2CCN(c3ccccn3)CC2)cc1	-7%
CCCCc1c(O)nc(SCC(=O)Nc2ccc3c(c2)CCC3)[nH]c1=O	-11%
O=C(O)/C=C/c1coc2ccc(F)cc2c1=O	-20%

# For convenience, part of the list above:
molecule	HPGD block
COc1ccc(CCNC(=O)COC(=O)c2cnc(C)cn2)cc1OC	8%
COc1ccc(C(=O)N2CCN(c3ccccn3)CC2)cc1	-7%
CCCCc1c(O)nc(SCC(=O)Nc2ccc3c(c2)CCC3)[nH]c1=O	-11%
O=C(O)/C=C/c1coc2ccc(F)cc2c1=O	-20%

# Following part:
molecule	HPGD block
O=c1oc2ccccc2cc1N1CCOCC1	-10%
O=C(/C=C/c1ccc(Cl)c([N+](=O)[O-])c1)Nc1ccc(N2CCCC2)cc1	-6%
O=c1c2ccccc2oc2nc(-c3ccco3)n(CCc3ccccc3)c(=O)c12	3%
c1cncc(Nc2nc(-c3cccs3)cs2)c1	?
O=C(CCc1ccc(Oc2cc([N+](=O)[O-])cc([N+](=O)[O-])c2)cc1)N1CCCCC1	0.045µM*
COc1ccc(C(=O)Nc2cccc(-c3nc4ncccc4o3)c2C)cc1	-15%
CCc1cc(C(=O)Cc2cnn(-c3ccccc3)c2)c(O)cc1O	?
CCc1cc2c(=O)nc3n(c2s1)Cc1ccccc1/C3=C(/O)c1ccccc1Cl	?
CC1(C)C(c2cccs2)=NC(c2ccccc2)N1O (configuration not stated)	-6%
CC(=O)OC(C(=O)NCc1ccc(F)cc1)c1ccccn1 (configuration not stated)	-13%
Cc1nc2cc(NC(=O)NCc3ccco3)ccc2o1	-12%
Cc1nnc(SCC(=O)N/N=C/c2cn(-c3ccccc3)nc2-c2ccc(F)cc2)n1-c1ccccc1	?
CCCN(CCC)S(=O)(=O)c1ccc(C(=O)N2CCCc3ccccc32)cc1	-9%
Cc1ccc(C2C(C(=O)c3cc4ccccc4o3)=C(O)C(=O)N2CCN2CCOCC2)o1 (configuration not stated)	-24%
Cc1ccc(N=Cc2sc(O)c3ccccc23)c(C)c1	-12%
CC(=NCC1CCCO1)C1=C(O)CC(C)(C)CC1=O (configuration not stated)	-7%
COc1ccc(C(CC(=O)N2CCOCC2)C(C)C)cc1 (configuration not stated)	-29%
O=C(c1ccc(F)cc1)N1CCN(c2ccc([N+](=O)[O-])c(N3CCOCC3)c2)CC1	-9%
C=CCn1c(SCC(=O)N2CCCCC2)nc(O)cc1=O	0.32µM*
COc1ccc(C(=O)C2CCN(C(=O)c3ccco3)CC2)cc1	-7%
CC(=O)c1ccc(NC(=O)C2(c3ccccc3)CCOCC2)cc1	-17%
O=C(Cn1cnc2cc([N+](=O)[O-])ccc2c1=O)NC(c1ccccc1)c1ccccc1	-12%
N#CC1=C2SCN(Cc3ccccc3)CN2C(=O)CC1c1cccs1 (configuration not stated)	20µM*
O=C(NCCCN1CCOCC1)c1coc2ccccc2c1=O	-4%
CS(=O)(=O)N1CCC(C(=O)NCC2CCCO2)CC1 (configuration not stated)	-5%
CC1=C(C(=O)OC(C)C)C(/C=C/c2ccccc2)NC(=O)N1 (configuration not stated)	-3%
Cc1cc(NC(=O)CSc2nnc(C3CC3)n2C)no1	-11%
CCOC(=O)C1=C(c2ccccc2)c2ccc(OC)cc2N(S(=O)(=O)C(F)(F)F)C1C(=O)OCC (configuration not stated)	?
CC(=O)c1cccc(NC(=O)C2CCN(S(=O)(=O)c3c(C)n[nH]c3C)CC2)c1	-17%
COc1ccccc1S(=O)(=O)Cc1ccc(C(=O)NCc2cccnc2)o1	0%
CN(C)c1ccc(/C=C/C(=O)c2ccccc2)cc1[N+](=O)[O-]	14µM*
O=C(CSCc1ccc(Cl)cc1)N/N=C/c1ccc(Cl)cc1Cl	-7%
O=C(Nc1ccc(Cl)cc1)OC(CN1CCCCC1)C(F)(F)F (configuration not stated)	-10%
CC1Cn2c(nnc2C23CC4CC(CC(C4)C2)C3)S1 (configuration not stated)	-22%
CCNc1nc(NC(C)C)nc(N(C#N)C(C)C(=O)N(C)C)n1 (configuration not stated)	-10%
CCOc1ccc(C(=O)Nc2cccc(C)n2)cc1	-4%
Cc1ccc(NC(=O)Cc2ccc(F)cc2)cc1	-6%
Cc1c(NC(=O)CSc2nnc(N)s2)c(=O)n(-c2ccccc2)n1C	2%
Cc1ccc(-c2cc(C(=O)NCCc3ccccn3)c3ccccc3n2)c(C)c1	-13%
O=C(NC1(C(F)(F)F)NC(=O)N(Cc2ccco2)C1=O)c1cccs1 (configuration not stated)	-14%
CCNC(=O)CC1C(=O)N(C)C(=S)N1NC(=O)c1ccc(Cl)cc1 (configuration not stated)	-7%
NC(=O)NOC[C@@H]1NC(=O)NC1=O	1%
COC(=O)C1=C(C(=O)OC)[C@@H]2Nc3ccccc3[C@@]23C[C@@H](C(=O)OC)N=C3N1	-1%
O=C(CCc1ccc(O)c(O)c1)NNC(=S)NCCc1ccccc1	-10%
[O-][n+]1c(CN2CCCCC2)nc2cccc3c2c1-c1ccccc1-3	?
COC(=O)c1ccccc1CCC(C)=O	-11%
CC1=CC(=O)N(c2ccc(C)cc2)C1c1ccc(Cl)cc1 (configuration not stated)	22µM*
CCC(C(=O)NC1CCCC1)N(C(=O)Cn1nnc(-c2ccc(OC)c(OC)c2)n1)C1CCCCC1 (configuration not stated)	-13%
COc1ccc(-c2cc(C(F)(F)F)n3ncc(C(=O)NCc4ccco4)c3n2)cc1	?
Cc1nc(SCC(=O)Nn2c(-c3ccccc3)nc3ccccc3c2=O)n[nH]1	-1%

# Further results:
molecule	HPGD block
COc1ccccc1NC(=O)CSC1=NC(=O)C(NC(C)=O)C(=O)N1 (configuration not stated)	1%
CCCCC(=O)Nc1ccc(NC(=O)CC)cc1OC	-11%
COc1c(N2CCN(C(=S)Nc3ccccc3)C(C)C2)c(F)cc2c(=O)c(C(=O)O)cn(C3CC3)c12 (configuration not stated)	?
O=C(c1cc2ccccc2oc1=O)N1CCN(Cc2ccc3c(c2)OCO3)CC1	-10%
CC1CCN(S(=O)(=O)c2ccc3c(c2)oc(=O)n3CC(=O)N2c3ccccc3CC2C)CC1 (configuration not stated)	-9%
CC12CC3(O)OC(O1)C1(COC(=O)c4ccccc4)[C@@H]3CC21O[C@@H]1O[C@H](CO)[C@@H](O)[C@H](O)[C@H]1O	2%
FC(F)(F)c1cccc(CON=C2CCN(c3ncc(C(F)(F)F)cc3Cl)CC2)c1	-10%
COCCNC(=O)COC(=O)c1nsc(Cl)c1Cl	-10%
Cn1c(NCc2cccc(Br)c2)nc2ccccc21	-3%
COCCCn1c(Cc2csc(Nc3cccc(Cl)c3)n2)nnc1SCC(=O)OC	-24%
COC(=O)c1sccc1NC(=S)N1CCN(c2ccc(F)cc2)CC1	-3%
COc1cc(/C=N/N=C2/NC(=O)C(c3ccccc3)S2)ccc1O (configuration not stated)	-26%
Cc1ccc(NC(=O)c2cc([N+](=O)[O-])ccc2NCc2cccnc2)cc1	-24%
COc1ccc(N2CCN(C(=O)CN3C(=O)c4ccccc4S3(=O)=O)CC2)cc1	1%
COc1cccc(OC)c1C(=O)Nc1ccc(C)cc1C(=O)c1ccccc1	-9%
COc1cccc(-c2nc(=S)c3c(n2CCCO)CCCC3)c1	-8%
Cc1onc(-c2ccccc2Cl)c1C(=O)N(Cc1nc(-c2ccccc2)no1)C1CCCCC1	-18%
CC1(C)OC2C(CO)OC(n3cnc4c(=O)[nH]c(N)nc43)C2O1 (configuration not stated)	-19%
COc1ccc(C(C)=O)cc1CN1C(=O)NC2(CCCCC2)C1=O	-6%
Cc1ccccc1NC(=O)c1c(-c2ccccc2)noc1C	2%
CCCCC(=O)Nc1ccc(NC(=O)c2ccc(C)c([N+](=O)[O-])c2)cc1OC	-4%
Cc1sc2nc(SCC(=O)NCc3ccco3)n(CCc3ccccc3)c(=O)c2c1C	-20%
C=CCc1cccc(OC)c1OCCOCCNCCO	-9%
CCc1ccc(N(CC(=O)Nc2ccc(OC)cc2OC)S(C)(=O)=O)cc1	-4%
COc1cc(OC)nc(S(C)(=O)=O)n1	2%

# 3 compounds from above, ordered by the number in HPGD block, ascending.
molecule	HPGD block
Cn1c(NCc2cccc(Br)c2)nc2ccccc21	-3%
COc1ccccc1NC(=O)CSC1=NC(=O)C(NC(C)=O)C(=O)N1 (configuration not stated)	1%
COc1cc(OC)nc(S(C)(=O)=O)n1	2%

# Back to the main list, repeating the 3 entries before the break.
molecule	HPGD block
C=CCc1cccc(OC)c1OCCOCCNCCO	-9%
CCc1ccc(N(CC(=O)Nc2ccc(OC)cc2OC)S(C)(=O)=O)cc1	-4%
COc1cc(OC)nc(S(C)(=O)=O)n1	2%
CN1CCN(c2ccccc2NC(=O)COc2ccccc2)CC1	-5%
COC(=O)[C@@]1(Cc2ccc(OC)cc2)[C@H]2c3cc(C(=O)N(C)C)n(Cc4ccsc4Br)c3C[C@H]2CN1C(=O)c1ccccc1	-3%
CCCn1c(SCC(N)=O)nnc1C(C)C	-5%
O=C(N/N=C/C=C/c1ccccc1)c1ccccc1Br	-21%
COc1cc(C(=O)Nc2nccs2)ccc1OCc1c(C)noc1C	?
CCOC(=O)C1CCN(CC(O)COc2ccc(C(=O)CC)cc2)CC1 (configuration not stated)	-2%
Cc1cc(C)cc(OCC(=O)OCC(=O)NCc2cccs2)c1	-25%
CC1=CC(=O)OC1Cc1ccncc1 (configuration not stated)	-9%
COC(=O)CC1SCCNC1=O (configuration not stated)	-11%
CCn1nc(NC(=O)c2ccco2)c2cc3ccccc3nc21	?
O=C(O)CCN1CCOCC1	-6%
CS(=O)(=O)N(CC(=O)N1CCCC1)Cc1ccc(Cl)cc1	-6%
CCOC(=O)c1cc(-c2ccccc2)sc1NC(=O)C(C)OC(=O)c1cccc(S(=O)(=O)N(C)C)c1 (configuration not stated)	-28%
CCC(=O)N1CCc2cc(S(=O)(=O)CCC(=O)Nc3nc(C)cs3)ccc21	-9%
CS(=O)(=O)c1ccc(Cl)c(S(=O)(=O)NCc2ccccc2)c1	5%
Cc1ccc(S(=O)(=O)NNC(=O)NC23CC4CC(CC(C4)C2)C3)cc1	2%
O=C(NCCCN1CCCC1)c1ccc(CS(=O)(=O)c2ccc(Br)cc2)o1	-1%
Cc1c(NC(=O)C(C)c2ccc(CC(C)C)cc2)c(=O)n(-c2ccccc2)n1C (configuration not stated)	-9%
CCC1(C)Cc2ccccc2C(Nc2c(C)n(C)n(-c3ccccc3)c2=O)=N1 (configuration not stated)	-6%
CCCCC1=CC2=CC(=O)C(C)(OC(=O)CC)C(=O)C2=CN1C1CCCCC1 (configuration not stated)	-9%
O=C(Nc1ccc(S(=O)(=O)N2CCN(Cc3ccccc3)CC2)cc1)c1cnccn1	-3%
COC(=O)C1=C(O)C(C(=O)OC)C(c2ccc(C)cc2)C(C#N)(C#N)C1c1ccc(C)cc1 (configuration not stated)	-16%
O=C(Nc1ccccc1N1CCN(C(=O)c2ccc(Cl)cc2)CC1)c1ccc(Br)cc1	?
COc1ccccc1C(=O)Nc1ccc(CN2CCCCC2)cc1	0%
